# Mtb bLac sens – beta-lactam sensitization of Mtb H37Rv, H37Rv. M. tuberculosis H37Rv growth with meropenem, percent inhibition; hits of this screen are not shown here. 330,000 tested, 0.27% active. AID 434955, 2010. inhibition, % at 25 µM;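 active = about 74% or more and at least 40 points above the plate without the antibiotic, then above 30% in a dose series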;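 also: growth measured after seven days incubation then overnight dye step; 0% = bacteria only wells and 100% = bacteria with antibiotic; twin plates without the antibiotic show which effects depend on it; some results filed as inactive read as strong as hits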
# RecA splice inh – Mtb RecA intein splicing inhibitors, primary screen, biochemical, fluorescence, HTS; AID 2221, 2009; 290,000 tested, 0.75% active; cell-free RecA intein splicing; inhibition, %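 (about 9 µM by stock and volumes)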; in the data active = inhibition above about 30%;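 also: 0% = vehicle wells and 100% = reference inhibitor control wells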
# Target sequence (P9WHJ3 whole entry, looked up, canonical isoform): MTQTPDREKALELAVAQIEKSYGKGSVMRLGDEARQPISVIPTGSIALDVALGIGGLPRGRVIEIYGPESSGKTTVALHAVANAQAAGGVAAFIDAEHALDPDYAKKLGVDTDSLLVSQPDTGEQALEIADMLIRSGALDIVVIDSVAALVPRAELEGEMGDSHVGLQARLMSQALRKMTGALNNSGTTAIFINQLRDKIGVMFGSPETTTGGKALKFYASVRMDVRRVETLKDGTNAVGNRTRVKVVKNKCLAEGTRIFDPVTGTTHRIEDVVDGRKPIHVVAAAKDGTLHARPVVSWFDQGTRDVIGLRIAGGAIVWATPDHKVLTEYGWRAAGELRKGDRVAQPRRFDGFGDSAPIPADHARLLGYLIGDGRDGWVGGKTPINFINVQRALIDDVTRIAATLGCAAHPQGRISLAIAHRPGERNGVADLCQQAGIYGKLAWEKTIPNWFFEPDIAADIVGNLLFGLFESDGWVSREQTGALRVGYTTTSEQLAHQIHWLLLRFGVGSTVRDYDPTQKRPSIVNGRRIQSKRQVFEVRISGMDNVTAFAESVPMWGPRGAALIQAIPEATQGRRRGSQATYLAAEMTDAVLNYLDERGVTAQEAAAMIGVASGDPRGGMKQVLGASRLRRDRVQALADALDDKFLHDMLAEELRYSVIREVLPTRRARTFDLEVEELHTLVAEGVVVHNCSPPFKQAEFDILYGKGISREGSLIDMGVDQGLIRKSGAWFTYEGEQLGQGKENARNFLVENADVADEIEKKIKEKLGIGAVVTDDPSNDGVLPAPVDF
# YopH inh – YopH tyrosine phosphatase inhibitors, primary screen, biochemical, fluorescence Ex485/Em525. 140,000 tested, 0.16% active. inhibition, %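 (about 10 µM by stock and volumes)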. YopH tyrosine phosphatase [Yersinia enterocolitica]. AID 898, 2007;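 active = inhibition of 50% or more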;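 also: controls were vehicle for no effect and minimum signal wells for full effect; inactives centre near -20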
# Arbovirus inh – antivirals against arbovirus infection, primary screen, cell-based, full library, 10K replicate subset | arbovirus infection cell-based antiviral screen | inhibition, % at 10 µM | 200,000 tested, 0.37% active | AID 1251, 2008;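 active = inhibition from about 30%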;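 also: bluetongue infection of BSR cells; cell survival read as ATP light after 72 h; 0% = infected wells without compound and 100% = uninfected wells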
# Mtb H37Rv – M. tuberculosis H37Rv growth inhibitors, H37Rv strain (AID 1626); M. tuberculosis H37Rv growth inhibition; higher % means a stronger effect; 220,000 tested, 0.95% active; inhibition, % at 10 µM, or IC50 in µM where a hit was titrated;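 active = confirmed in a dose series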;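 also: bacteria incubated seven days before Alamar blue readout; 0% = bacteria only wells and 100% = bacteria with antibiotic wells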
# Arbovirus inh repeat – second read-out of Arbovirus inh, no call of its own (marks repeat the call); inhibition, %; measured here: 10K subset replicate screen; many hits read low in the repeat;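 first of two repeat runs on a subset; 0% = infected and 100% = uninfected wells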
# * marks the source's active call; other numbers are inactive results; · = no result given.
SMILES,Mtb bLac sens,RecA splice inh,YopH inh,Arbovirus inh,Mtb H37Rv,others
CCCC(=O)Nc1ccc(Br)cn1,-11.7,3.8,-17.5,7.9,-18.5%,
CC(C)CCN1C(=O)c2ccc(C(=O)Nc3ccccc3C(=O)O)cc2C1=O,-1.5,13.0,·,·,·,
Cc1cc(S(=O)(=O)NCc2ccccc2)ccc1OCC(=O)NCc1ccncc1,-12.7,-0.7,·,·,·,
O=[N+]([O-])c1ccccc1/C=N/NC1=NCCCCC1,-4.3,-0.2,-21.0,6.8,2.1%,
Cc1ccc(S(=O)(=O)Nc2cccc(Oc3cnccn3)c2)cc1,3.8,8.3,·,-8.2,2.9%,
Cc1ccc(C)c(S(=O)(=O)Nc2ccccc2C(=O)Nc2cc(C)on2)c1,7.6,8.2,-32.1,16.1,-4.5%,Arbovirus inh repeat=4.7
Cn1c(SCC(N)=O)nnc1-c1ccccc1,-2.7,1.0,-53.0,-0.7,-12.5%,
CCN1CCN(C(=O)c2c(-c3ccccc3)noc2C)CC1,-5.7,-2.2,·,·,·,
O=S(=O)(CC12C3C4C5C1C2C(Br)(C43)C51OCCO1)c1ccccc1 (configuration not stated),-11.8,0.5,-15.7,10.0,-0.4%,
O=C(Nc1ccc(OC(F)F)c(Cl)c1)C(c1ccccc1)c1ccccc1,2.8,6.9,-5.4,10.3,4.2%,
COC(=O)CC1C(=O)NCCN1C(=O)CSc1nnnn1-c1ccc(OC)cc1 (configuration not stated),-7.5,-2.4,·,5.8,-2.2%,
C=C1CC(C(=O)N/N=C/c2ccc(O)cc2)C1,-10.2,2.6,-18.2,-7.6,4.2%,
O=C(O)c1ccc(Cl)c2c1C1C=CCC1C(c1ccccn1)N2 (configuration not stated),-9.5,9.0,-35.0,10.0,-1.7%,Arbovirus inh repeat=15.4
C=CCC1(CC=C)CCCN1C(=O)CC1C(=O)NCCN1Cc1cccc(OC)c1OC (configuration not stated),-4.0,1.0,·,3.3,·,
Cc1ccc(Nc2ccc(C(N)=O)cc2[N+](=O)[O-])cc1C,1.7,-0.8,-17.5,-9.6,5.4%,
Cn1c(C(=O)N2CCN(c3ccc(F)cc3)CC2)cc2ccccc21,-7.5,3.7,·,·,·,
O=C(NCC(c1cccs1)N1CCOCC1)c1ccccc1NS(=O)(=O)c1ccc(Cl)c([N+](=O)[O-])c1 (configuration not stated),4.0,19.0,-31.6,8.2,-6.6%,
CCCC(c1nnnn1Cc1ccco1)N1CCN(C(=O)c2ccco2)CC1 (configuration not stated),-3.9,2.8,-45.5,6.7,-5.9%,
Cc1cc2cc(CN(Cc3cccs3)S(=O)(=O)c3ccc4c(c3)OCCO4)c(=O)[nH]c2cc1C,5.7,0.6,-23.9,-19.5,2.3%,
CC(=O)Nc1ccc(C2Nc3cc(C)c(C)cc3NC3=C2C(=O)CC(C)(C)C3)cc1 (configuration not stated),-2.1,-4.6,·,·,·,
CC1CCCC(NC(=O)COC(=O)c2cc(S(=O)(=O)N3CCCCC3)ccc2N2CCOCC2)C1C (configuration not stated),-20.4,-1.3,-26.4,-11.0,-2.8%,
C=CCCCCCCCCC(=O)NNC1=CC(=O)CC(C)(C)C1,-3.8,0.6,1.9,9.7,9.2%,
CCn1c(SCC(=O)Nc2ccc(OC)cc2)nc2c1c(=O)n(C)c(=O)n2C,3.0,-0.1,·,·,·,
Cc1ccc(C(=O)O)c(C(=O)Nc2nc3ccccc3s2)c1,-1.0,0.2,·,·,·,
COc1ccc(S(=O)(=O)N2CCCC(N(C)CCc3ccccc3)C2)cc1OC (configuration not stated),1.1,-1.1,·,·,·,
O=S(=O)(c1ccccc1)N1CCN(c2cccc(Cl)c2)CC1,1.7,9.0,·,·,·,
Cn1nnc(NC(=S)NC(=O)Cc2ccccc2)n1,-5.3,-1.1,·,4.6,23.4%,
CC(=O)c1ccc(N/C=C/C(=O)c2ccc(Br)cc2)cc1,0.0,-2.9,·,·,·,
Cc1ccc(Nc2nnc(SCC(=O)NC(Cc3c[nH]c4ccccc34)C(=O)O)s2)cc1 (configuration not stated),1.6,-4.2,·,4.2,-3.9%,
Cn1c(SCc2cccc(F)c2)nnc1-c1cnccn1,-3.1,0.6,·,·,4.8%,
Cc1ccccc1NC(=O)CSc1nnnn1C,-6.4,-2.8,-29.8,5.1,-2.4%,
COc1cccc(OCc2nnc(SCC(=O)OC3CCCCC3)n2C)c1,88.2,6.6,-7.4,3.4,6.4%,
COc1ccc(CNC(=O)CC23CC4CC(CC(C4)C2)C3)cc1,-1.3,1.6,·,·,·,
COC(=O)c1ccc(S(=O)(=O)NCCSc2nnc3c4ccccc4n(C)c3n2)cc1,9.5,-0.4,-9.8,-2.5,5.0%,
C=CCNC(=O)N1c2ccccc2Sc2ccccc21,-4.3,1.6,·,·,·,
c1ccc(C(Cc2nc(-c3ccccn3)no2)c2ccccc2)cc1,42.9,10.5,19.2,2.1,8.4%,Arbovirus inh repeat=0.3
COc1ccc(/C=N/N2C(=O)c3ccccc3C2=O)cc1,-0.7,-0.3,-23.9,8.6,1.6%,
COc1ccc(OS(=O)(=O)c2c(C)noc2C)cc1,-1.6,-0.6,·,·,5.4%,
O=C(CCN1C(=O)C2CC=C(Cl)CC2C1=O)NCc1ccco1 (configuration not stated),-4.7,0.5,-43.6,4.7,4.5%,
Clc1ccc(CSc2ncccn2)cc1,-1.4,0.3,-8.3,1.7,6.2%,
COc1ccc(CN2C3CCC2CC(NC(=O)c2cc(OC)c(OC)c(OC)c2)C3)cc1 (configuration not stated),-0.5,-0.6,·,·,·,
Cc1nc(Sc2nnnn2-c2ccccc2)c(C#N)c(C)c1C,-4.6,1.5,-36.4,5.4,-1.1%,Arbovirus inh repeat=10.0
S=C(Nc1ccc(Cl)c(Cl)c1)N1CCOCC1,-0.2,1.2,-16.2,12.8,16.6%,
Cc1cc(OC(=O)c2ccc(S(=O)(=O)N(C)C)cc2)c([N+](=O)[O-])c(=O)[nH]1,-0.7,-0.8,·,18.2,27.9%,
C=C(C)c1cccc(C(C)(C)NC(=O)NCCCN2CCCC2=O)c1,-2.5,-0.3,-30.4,0.9,-2.1%,
COc1ccccc1NC(=O)CS(=O)(=O)c1cn(CC(=O)N2CCOCC2)c2ccccc12,1.8,-0.4,·,3.8,2.1%,
COc1ccccc1-c1noc(-c2ccccc2C(=O)Nc2ccccc2)n1,-4.5,-2.9,-24.3,-3.9,4.1%,
CN(NC(=O)c1cccc(Cl)c1)c1nc(-c2ccccc2)nnc1C(F)(F)F,4.2,-8.7,-36.6,-5.9,0.2%,
CN(c1ccccc1N(C)S(=O)(=O)c1ccccc1)S(=O)(=O)c1ccccc1,0.6,-0.2,·,·,·,
O=C(O)c1cc(S(=O)(=O)N2CCCC2)ccc1Br,-5.0,-0.6,-39.3,4.3,2.2%,
COc1ccc(/C=C/C(=O)NCC(=O)N/N=C/c2cccnc2)cc1,2.5,-1.4,·,-0.8,2.3%,
CC(C)CN(C(=O)COC(=O)c1cc2ccccc2oc1=O)C1CCS(=O)(=O)C1 (configuration not stated),·,·,-32.3,14.2,-3.1%,
O=C(c1ccc2ccccc2c1)N1CCN(c2ccccc2)CC1,24.2,1.3,-27.9,4.0,-0.1%,
Cc1ccc(OCc2cc(C(=O)NCC(C)(C)N3CCOCC3)no2)cc1C,9.9,0.9,·,·,·,
O=c1c2ccccc2oc2cc(-c3ccc4[nH]ccc4c3)ccc12,14.8,2.0,·,·,0.3%,
O=C1c2ccccc2C(=O)N1C1CCCCC1,-2.8,0.9,·,·,·,
COc1ccc(Nc2nc3ccccc3s2)cc1,1.7,4.9,·,-1.4,4.3%,
CCCC(C)NC(=O)CN1C(=O)NC2(CCc3ccccc32)C1=O (configuration not stated),2.1,-1.2,·,·,·,
COc1cccc2cc(C(=O)Nc3ccccc3Cl)/c(=N/NS(=O)(=O)c3ccccc3)oc12,0.2,1.2,·,·,·,
COc1ccc(/C=C(/NC(=O)c2ccccc2)C(=O)N2CCCC2)cc1,-2.3,0.8,·,·,·,
# The list continues.
SMILES,Mtb bLac sens,RecA splice inh,YopH inh,Arbovirus inh,Mtb H37Rv,others
NC(=O)C1(NC(=O)[C@@H]2CC3(CC(c4cccc(NC(=O)[C@@H]5CCC(=O)N5)c4)=NO3)CN2C(=O)Cc2ccc(C(F)(F)F)cc2)CC1 (some centres not stated),-8.8,-3.7,-17.4,-1.8,-6.1%,
CC(=O)c1ccc(N2CCN(C(=O)C(=O)c3c(C)[nH]c4ccccc34)CC2)cc1,32.8,-1.7,·,·,·,
Cc1n[nH]c(=S)n1/N=C/c1ccc(-c2ccc(Cl)cc2)o1,-3.3,-2.0,·,·,·,
O=C(O)/C=C/C(=O)NNC(=O)c1cccc(Br)c1,-0.9,0.1,-23.1,-8.0,4.3%,
O=C1CC(c2ccc(O)c(O)c2)Oc2c1ccc(O)c2O (configuration not stated),0.2,·,·,·,-7.7%,
CN(Cc1ccccc1)C(=O)c1ccc2c(c1)OCCO2,-15.9,-2.3,-34.0,0.9,-11.7%,Arbovirus inh repeat=-1.7
O=C(CNC(=O)c1cccs1)NCCN1CCN(c2ccccc2F)CC1,5.5,-1.3,-34.8,3.0,-21.1%,
COc1ccc(N2C(=O)c3cccc4cccc(c34)C2=O)nn1,·,4.6,29.1,15.6,-3.2%,
C=C(C)CN=c1scc(C)n1/N=C/c1ccco1,31.3,-6.4,-21.4,1.8,7.3%,
Cc1ccc(C(=O)Nc2cccc(C(=O)NC3CCCCC3)c2)cc1,-4.3,0.2,·,·,·,
CC(C1CCN(Cc2nc(C3CC3)no2)CC1)N1CCOCC1 (configuration not stated),-5.6,-3.5,·,-10.1,-10.4%,
COc1ccc(-c2cc(C(F)(F)F)c3c(=O)n(-c4ccccc4)[nH]c3n2)cc1,31.4,3.4,-10.3,-10.0,7.2%,
O=C(CN(C(=O)CNS(=O)(=O)c1ccccc1)C1CCCC1)NCc1ccco1,12.5,0.9,·,3.1,-3.5%,
CC(=O)c1ccc(OCc2cc(C(=O)N3CCC(Oc4ccccc4C)CC3)no2)cc1,69.9,11.1,·,·,·,
COc1ccc(C(OC(=O)c2cccs2)C(=O)NCC2CCCO2)cc1 (configuration not stated),-2.7,-0.9,-34.6,-3.8,-12.5%,

# Sorted by number of heavy atoms (high to low): some entries from above
SMILES,Mtb bLac sens,RecA splice inh,YopH inh,Arbovirus inh,Mtb H37Rv,others
Cc1cc2cc(CN(Cc3cccs3)S(=O)(=O)c3ccc4c(c3)OCCO4)c(=O)[nH]c2cc1C,5.7,0.6,-23.9,-19.5,2.3%,
Cc1cc(S(=O)(=O)NCc2ccccc2)ccc1OCC(=O)NCc1ccncc1,-12.7,-0.7,·,·,·,
C=C1CC(C(=O)N/N=C/c2ccc(O)cc2)C1,-10.2,2.6,-18.2,-7.6,4.2%,

# Continued:
SMILES,Mtb bLac sens,RecA splice inh,YopH inh,Arbovirus inh,Mtb H37Rv,others
Cn1c(SCCN2CCCC2)nnc1C1CCN(S(=O)(=O)c2ccc(F)cc2)CC1,4.4,-1.2,·,·,·,
CC(C)CC(C(=O)O)N(Cc1ccccc1)Cc1ccccc1 (configuration not stated),6.2,-0.8,-32.8,5.8,9.7%,
Cc1ccc2nc(SCC(=O)Nc3cccc(F)c3)nc(=O)n2c1,-5.2,0.7,·,·,·,
C/C(N)=C(/C#N)C(=O)COC(=O)Cc1coc2cc(C)ccc12,-3.3,3.8,·,1.4,-3.2%,
CC(C)(C)OC(=O)NCCCC[C@H](NC(=O)c1nc[nH]c1C(=O)N1CCN(c2ccccc2)CC1)C(=O)OC(C)(C)C,20.6,0.6,·,·,-3.9%,
N#CCn1c(CN2CCCC2)nc2ccccc2c1=O,-5.6,-1.7,·,·,·,
Cc1cccc(C(CC(=O)O)NC(=O)C(F)(F)F)c1 (configuration not stated),-3.7,0.8,·,3.9,5.4%,
Cc1nc(NCc2cccnc2)c2c3c(sc2n1)CCCC3,-2.1,1.7,·,-8.8,-0.9%,
C=CCOc1ccccc1CNCc1ccc(F)cc1,-6.9,-2.7,·,3.1,0.1%,
Cc1ccccc1-c1nc2ccc(Cl)cc2c(=O)n1O,5.6,0.4,·,·,·,
O=C(NC(=S)Nc1ccc(N2CCOCC2)c(Cl)c1)c1cccs1,1.6,6.5,·,-1.2,-13.6%,
C=CCNC(=O)CCCOc1cccc(C)c1,-0.4,·,-57.3,2.0,-5.4%,
COc1ccc(C(=O)NCc2nnc(SCC(=O)N3CCc4ccccc43)n2CCc2ccccc2)cc1,5.0,3.1,-29.7,-1.9,·,
CCn1c(CSCc2ccc(F)cc2)nnc1SCC(=O)NCc1ccccc1,-2.4,0.7,-3.7,9.2,1.5%,

# 2 records drawn at random from the list so far, as already listed:
SMILES,Mtb bLac sens,RecA splice inh,YopH inh,Arbovirus inh,Mtb H37Rv,others
O=S(=O)(CC12C3C4C5C1C2C(Br)(C43)C51OCCO1)c1ccccc1 (configuration not stated),-11.8,0.5,-15.7,10.0,-0.4%,
CCN1CCN(C(=O)c2c(-c3ccccc3)noc2C)CC1,-5.7,-2.2,·,·,·,

# Assay outcomes: PubChem, several laboratories

# An excerpt. The share of hits here may be higher or lower than overall.
